# Compound activity (PubChem BioAssay)
# VDR inh = Inhibitors of the vitamin D receptor (VDR): qHTS | AID 504847, 2011 | Potency, µM, for the others: max response, negative = inhibition, actives largely listed as inhibitors | Vitamin D3 receptor (Homo sapiens), P11473 | 0.93% of 400,000 active | VDR-SRC2-3 peptide fluorescence polarization, 2 h; active = well fitted inhibition curve with a large enough effect; inconclusive = small, poorly fitted or top-dose-only effect, or another doubt; inactive = no such curve, though single readings can be large or run the other way; note: series mostly up to about 120 µM
# Target sequence (P11473 whole entry, looked up): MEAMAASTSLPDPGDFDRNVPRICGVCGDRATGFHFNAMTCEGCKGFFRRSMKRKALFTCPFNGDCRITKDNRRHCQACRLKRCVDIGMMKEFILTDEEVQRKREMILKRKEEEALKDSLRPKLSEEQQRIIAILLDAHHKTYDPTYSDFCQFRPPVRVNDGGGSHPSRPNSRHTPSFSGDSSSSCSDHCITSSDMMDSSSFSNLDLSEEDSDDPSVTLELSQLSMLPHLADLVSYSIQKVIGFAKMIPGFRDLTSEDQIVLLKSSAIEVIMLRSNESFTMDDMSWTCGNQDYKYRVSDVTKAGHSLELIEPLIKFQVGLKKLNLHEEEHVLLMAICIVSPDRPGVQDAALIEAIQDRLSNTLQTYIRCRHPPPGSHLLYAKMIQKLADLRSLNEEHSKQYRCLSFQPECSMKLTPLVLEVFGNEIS
#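 After 23 nl compound addition and a short centrifugation, plates sat for 2 hours at ambient temperature; polarization of fluorescence then indicated loss of VDR binding to peptide SRC2-3.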
# * = called active by the depositor; ? = inconclusive; & = joins results of further samples; [ ] = remark or other dose. % is set by controls: 0 for no effect and ±100 for the full control effect; potency is the fitted concentration of half-maximal effect. This is a subset (hit frequency here may not be typical).
VDR inh	compound
-12.1%	C[C@@H]1COC(=O)[C@@H](Cc2ccc(F)cc2)C/C=C\C[C@@H](CC(=O)NCCO)C(=O)N1
7.0%	Cc1cc(C)c(C)c(S(=O)(=O)NC2CCN(Cc3ccccc3)CC2)c1C
-3.7%	Cc1ccccc1-c1nn2c(-c3ccccc3)nnc2s1
11.4%	CCCNC(=O)c1ccccc1NC(=O)c1ccccc1N(C)S(C)(=O)=O
8.4%	CCNC(=O)OCc1cn(-c2ccccc2)nn1
-13.5%	Cc1ccc(S(=O)(=O)c2cc3c(=O)n4cccc(C)c4nc3n(C3CCCCC3)c2=N)cc1
-10.1%	CCCC(=O)C1=C(SCC)CC(C)(C)C(C(=O)OC)C1=O (stereo unspecified)
7.9%	COc1ccc(C)cc1NC1(c2ccccc2)C(=O)c2ccccc2C1=O
3.6%	COCCCn1c(C(=O)NC2CCCCC2C)cc2c(=O)n3cccc(C)c3nc21 (stereo unspecified)
-10.2%&-2.7%	CCC1CCCCN1CCCNC(=O)CN1C(=O)c2cccnc2Oc2ccc(Cl)cc21 (stereo unspecified)
-1.0%	Cc1ccc(S(=O)(=O)CC(=O)c2ccc([N+](=O)[O-])cc2)cc1
-11.5%	Cc1cccc(N2CCN(C(=O)c3cccc(S(=O)(=O)N4CCc5ccccc5C4)c3)CC2C)c1 (stereo unspecified)
-18.4%	CCC(C(=O)NCc1ccco1)N(C(=O)CNS(=O)(=O)c1ccccc1)C1CCCCC1 (stereo unspecified)
1.8%	CCCN1CCN(c2ncnc3sc(C(=O)Nc4ccc(C(C)C)cc4)c(C)c23)CC1
-8.8%	C=CCNC(=O)c1cn(CC)c2cc(N3CCN(C(=O)c4ccco4)CC3)c(F)cc2c1=O
-2.2%	Fc1ccc(OCCn2cnc(Cl)c2Cl)cc1
-16.5%	Cc1ccc(-c2nn(C)c(=O)c3ccccc23)cc1CNC(=O)NC1CCCCC1
-6.6%	C=CCSc1nnc2c(n1)OC(C)=Nc1ccc(Br)cc1-2
10.7%	CCOc1ccc(NC(=S)NC(=O)/C=C/c2ccc(Br)cc2)c([N+](=O)[O-])c1
8.7%	Cc1ccc2sc(N(CCCN(C)C)C(=O)CN3C(=O)c4ccccc4C3=O)nc2c1C
-12.0%	O=C(NC1CCCc2c1cnn2-c1cc(F)cc(F)c1)c1ccncc1 (stereo unspecified)
10.2%	COc1ccc(-c2cn3nc(SCC(=O)Nc4cccc(C)c4C)ccc3n2)cc1
15.3%	COc1ccc(-c2csc(NC(=O)Cc3ccccc3)n2)cc1OC
9.3%	CCCN1CCN(c2cc3c(cc2F)c(=O)c(S(=O)(=O)c2ccc(CC)cc2)cn3CC)CC1
7.6%	Cc1ccc(S(=O)(=O)N2CCN(c3ncnc4scc(-c5ccccc5)c34)CC2)cc1

# Quoted from the results shown for reference:
VDR inh	compound
-12.1%	C[C@@H]1COC(=O)[C@@H](Cc2ccc(F)cc2)C/C=C\C[C@@H](CC(=O)NCCO)C(=O)N1
7.0%	Cc1cc(C)c(C)c(S(=O)(=O)NC2CCN(Cc3ccccc3)CC2)c1C

# The listing continues:
VDR inh	compound
-23.1%	CCc1ccc(NC(=O)C(NS(=O)(=O)c2cccs2)C(C)C)cc1 (stereo unspecified)
0.5%	COc1ccc(/C(C)=N/NC(=O)CNC(=O)c2cccs2)cc1
-5.4%	CC(Oc1ccc(Br)cc1)C(=O)Nc1ccc(S(=O)(=O)N(C)C2CCN(C)CC2)cc1 (stereo unspecified)
-10.2%	Cc1ccc(SC(C)C(=O)NCc2ccncc2)cc1 (stereo unspecified)
-10.5%	CCCC(=O)Nc1cc2c3c(c1)CCN3C(=O)CC2
16.7%	CC(CCc1ccccc1)NC(=O)Cn1c(=O)nc(-c2ccccc2F)c2cc(Cl)ccc21 (stereo unspecified)
-13.3%	CC(Sc1ccc(S(=O)(=O)N2CCN(C)CC2)cn1)C(=O)NC1CCCCC1 (stereo unspecified)
-12.1%	C=C1C(=O)OC2C=C(CO)CCC=C(CO)CC(OC(=O)C(C)C)C12 (stereo unspecified)
5.1%	COc1ccc(CN2Cc3cccc4c3[C@@H](CC2=O)[C@H](O)[C@H](O)C4)cc1
20.9%	CCN(CC)CCCN(C(=O)c1ccco1)c1nc(-c2ccc(Cl)cc2)cs1
-7.4%	Cc1cc(C(=O)COC(=O)c2cccnc2Cl)c(C)n1-c1c(C)n(C)n(-c2ccccc2)c1=O
10.9%	O=C(Cc1ccccc1)NCCSCc1ccc(Cl)cc1
8.6%	Cc1ccc(C(=O)/C=C/c2cn(CC(O)CN3CCc4ccccc43)c3ccccc23)cc1 (stereo unspecified)
-13.9%	CC(C(=O)N1CCOCC1)n1cc([N+](=O)[O-])cn1 (stereo unspecified)
38.8%	CCOc1cc(/C=N\NC(=O)c2ccc(NC(=O)C(C)(C)C)cc2)ccc1OC(=O)c1ccc(OC)cc1
?	O=C(Nn1cnnc1)c1ccc(F)c(S(=O)(=O)N2CCCCC2)c1
1.1%	CCOC(=O)C(C#N)=CN1CCNc2ccccc21
9.5%	Cc1c(-c2nnc(SCC(=O)Nc3ccc(Br)cc3)o2)nnn1-c1ccc(F)cc1
3.2%	Cn1c(=O)c2cc3c(nc2n(C)c1=O)CC(c1ccccc1)CC3=O (stereo unspecified)
?	COc1ccc(C2Nc3ccccc3C(=O)N2Cc2ccco2)cc1OC (stereo unspecified)
-0.4%	COc1ccccc1NC(=O)Cn1c(=O)c(CNc2ccc(C)cc2)cc2cc3c(cc21)OCCO3
6.9%	CCOc1ccc(S(=O)(=O)N2CCOCC2)cc1NC(=O)CSCc1c(C)noc1C
-17.1%	O=C(Nc1ncc2c(n1)-c1ccccc1OC2)c1ccccc1Cl
4.7%	O=C(NCCc1c[nH]c2ccccc12)c1ccc([N+](=O)[O-])cc1
-4.7%	COc1cccc(NC(=O)Cc2nnc(SCC(=O)NC(C)c3ccccc3)n2C)c1 (stereo unspecified)

# Taken from above:
# CC(C(=O)N1CCOCC1)n1cc([N+](=O)[O-])cn1 (stereo unspecified) @ VDR inh: -13.9%
# COc1ccc(/C(C)=N/NC(=O)CNC(=O)c2cccs2)cc1 @ VDR inh: 0.5%
# O=C(Cc1ccccc1)NCCSCc1ccc(Cl)cc1 @ VDR inh: 10.9%
# CCN(CC)CCCN(C(=O)c1ccco1)c1nc(-c2ccc(Cl)cc2)cs1 @ VDR inh: 20.9%
# Cc1ccc(C(=O)/C=C/c2cn(CC(O)CN3CCc4ccccc43)c3ccccc23)cc1 (stereo unspecified) @ VDR inh: 8.6%
# Cc1ccc(SC(C)C(=O)NCc2ccncc2)cc1 (stereo unspecified) @ VDR inh: -10.2%

# The list continues:
VDR inh	compound
-25.8%	O=C(O)/C=C/C(=O)Nc1cc(F)ccc1F
3.1%	COc1ccc(NC(=O)CCN2CCN(S(=O)(=O)c3ccc(Br)cc3)CC2)cc1
-6.3%	Cc1c(C(=O)OCC(=O)NC(=O)NC2CCCCC2)cccc1[N+](=O)[O-]
20.4%	Cc1ccc(NC(=O)Cn2cc3c(n2)CCCC3)cc1Cl
-10.2%	Cc1cc(NC(=O)CSc2nc3c(c(=O)n2Cc2ccccc2)SC(C)C3)no1 (stereo unspecified)
6.2%	CC(NC(=O)/C(C#N)=C1\N=C(NC(=O)c2cccs2)c2ccccc21)c1ccccc1 (stereo unspecified)
-16.9%	CC1(c2ccccc2)NC(=O)N(CC(=O)NCc2cccc(Cl)c2)C1=O (stereo unspecified)
-19.4%	Cc1ccc(S(=O)(=O)CCC(=O)N2CCN(c3ccccc3F)CC2)cc1
-18.8%	COC(=O)c1ccccc1NC(=O)CNc1ccc(F)c(S(=O)(=O)N2CCOCC2)c1
-3.4%	O=C(c1cc(-c2ccccc2Cl)nc2ccc(Br)cc12)N1CCN(c2ccccn2)CC1
-5.2%	COc1cccc(C(=O)c2c(C)c(CCC#N)n3ccccc23)c1
-3.6%	O=C(O)c1ccc(/C=N/NC(=O)c2ccc(F)cc2)cc1
10.9%	Cc1ccc(NC(=O)C(c2ccc(Cl)cc2)N2CCCCC2)cc1 (stereo unspecified)
-20.9%	COc1ccc(-c2nc3ccccc3n3c(-c4ccc(OC)cc4)c4c(=O)n(C)c(=O)n(C)c4c23)cc1
-8.0%	N#Cc1ccccc1CSc1nnc(-c2ccccc2)o1
-0.9%	CCOC(=O)c1cc(-c2ccccc2)n(CC(=O)NC(C)(C)C)c1C
1.8%	O=C(NC1CCS(=O)(=O)C1)c1ccc(N2CCCCC2)c([N+](=O)[O-])c1 (stereo unspecified)
-4.0%	CN1CCN(C(=O)c2ccccc2NC(=O)CCN2C(=O)c3ccccc3C2=O)CC1
16.1%	O=C(c1ccccc1)c1ccc(OC(=O)N2CCCC2)cc1
8.7%	N#Cc1ccc(C(=O)OCC(=O)N2CCN(C(=O)c3ccco3)CC2)cc1
6.1%	CC(C)[C@H](NC(=O)c1ccc(F)cc1)C(=O)N(C)Cc1cccs1
-22.6%	O=C(NCc1ccccc1)C1=C[C@@H](c2coc3ccccc3c2=O)C[C@@H](OCCCCO)O1
-14.1%	Cc1ccc(-n2c(C)cc(/C=C3/C(=N)N4C(c5ccccc5)=CSC4=NC3=O)c2C)cc1
-11.0%	Cc1cc(=O)oc2c(C)c(OC(C)C(=O)N3CC[C@@]4(O)CCCC[C@H]4C3)ccc12 (stereo partly specified)
38.7%[activator]	COc1ccc(S(=O)(=O)NNC(=O)c2cccs2)cc1
15.2%	CC(=O)NNc1nc(-c2ccc(C)cc2)cs1
-0.9%	Cc1cccc(CSc2nc3ccncc3n2CC(=O)N(C)C2CCCCC2)c1
1.3%	N#CC(C#N)=CC1=C2OC(c3ccccc3)=CC(c3ccccc3)=C2CCC1
-10.5%	COc1ccc(OC)c(CNC(=O)CCN2C(=O)COc3ccccc32)c1
12.0%	Cc1cccc(C)c1NC(=O)C1CSC2(C)CCC(=O)N12 (stereo unspecified)
-17.9%	CCOc1ccc(C(=O)NC(=S)Nc2ncccc2C)cc1[N+](=O)[O-]
-18.0%	COc1cc(NC(=O)CCCc2c[nH]c3ccccc23)cc(OC)c1
-14.1%	CC(C)c1nc2oc3c(N4CCNCC4)ncnc3c2c2c1CCC2
-3.2%	O=C(NC1CCCCCC1)c1ccc(CS(=O)c2ccc(Br)cc2)o1 (stereo unspecified)
-1.5%	CC(C)CCNC(=O)CCn1c(=O)c2cccn2c2cccnc21
9.4%	O=C1[C@H](Cc2ccccc2)NCCCC[C@H](c2ccc(Cl)cc2)N1Cc1ccc(Cl)cc1
-1.1%	COc1c(F)c(F)c(-c2csc(N)n2)c(F)c1F
4.3%	CC(=O)c1cccc(NC(=O)C(CC(C)C)NS(=O)(=O)c2ccc3c(c2)CCN3C(C)=O)c1 (stereo unspecified)
-2.2%	CCCN(CCC)C(=O)Cn1c(SCc2cccc(F)c2)nc2cccnc21
?	O=c1cc(O)nc(-c2ccc(Cl)cc2)s1
6.8%	O=C1c2ccccc2NC2(CCCCC2)N1c1ccc(O)cc1
26.9%	CCc1nc2ccccc2c(C(=O)OCC(=O)N(C)Cc2ccccc2)c1C
8.6%	COc1ccc(CNC(=O)C(=O)NCCC2CCCCN2S(=O)(=O)c2ccc(C)cc2)cc1 (stereo unspecified)
-8.9%	COC(=O)c1c(N)sc(C(=O)NCCc2ccccc2)c1C
-18.5%	CCc1ccc(OCC(=O)N2CCN=C2c2ccccc2)cc1
11.8%	C[C@H](NC(=O)C1CC(=O)N(c2ccc3c(c2)OCCO3)C1)C(=O)NCc1ccco1 (stereo partly specified)
-0.2%	N#Cc1ccc(C(=O)NCC2CCCCC2)cc1
-12.7%	O=C(Cn1c2ccccc2c(=O)c2ccccc21)Nc1ccccc1F
-15.6%	CC(O)CNCc1ccc(Cl)cc1Cl (stereo unspecified)
-19.0%	CC(=O)c1ccc(NC(=O)Cn2nc(C(F)(F)F)c3c2CCCC3)cc1

# Sorted by value in VDR inh (falling): some entries from above
VDR inh	compound
8.6%	COc1ccc(CNC(=O)C(=O)NCCC2CCCCN2S(=O)(=O)c2ccc(C)cc2)cc1 (stereo unspecified)
4.3%	CC(=O)c1cccc(NC(=O)C(CC(C)C)NS(=O)(=O)c2ccc3c(c2)CCN3C(C)=O)c1 (stereo unspecified)
-8.9%	COC(=O)c1c(N)sc(C(=O)NCCc2ccccc2)c1C

# Next compounds follow:
VDR inh	compound
4.9%	C=CCN1C(=CCO)[C@H]2C[C@H]3[C@@H]1CC[C@@]31c3ccccc3N3C=C4[C@@H]5N(/C=C/2[C@H]31)c1ccccc1[C@]51CC[C@H]2[C@H]1C[C@@H]4/C(=C/CO)N2CC=C
-13.6%	Cc1ccc(NC(=O)CN2C(=O)NC(Cc3ccccc3)C2=O)cc1 (stereo unspecified)
-0.7%	O=C(NCC(=O)N1CCN(S(=O)(=O)c2ccc3c(c2)OCCO3)CC1)c1ccccc1Cl
1.5%	CCOC(=O)N/N=C\c1ccc(-c2cc(Cl)ccc2Cl)o1
-14.2%	CCCCc1nc2sc3c(=O)n(N)cnc3c2c2c1CCCC2
-14.5%	COC(=O)[C@@]12CCCCN1[C@H](c1ccc(-c3cccc(Cl)c3)c(OC)c1)[C@@H]1C(=O)N(C)C(=O)[C@@H]12
6.5%	CC(C)(C)C(=O)N1CCN(c2nc3ccccc3o2)CC1
16.0%	Cc1ccccc1Cn1c2ccccc2c2cnn(CC(=O)NCCCc3ccccc3)c(=O)c21
-0.2%	COc1ccc(CNC(=O)C2CCCN(S(=O)(=O)N3CC(C)CC(C)C3)C2)c(OC)c1 (stereo unspecified)
3.2%	COC(=O)c1sccc1NC(=S)N1CCCCC1
5.6%	O=C(Cn1cnc2ccccc2c1=O)NCCC(=O)N1CCN(c2ccccc2)CC1
-9.5%	O=C(CCCc1c[nH]c2ccccc12)NCc1ccccc1F
5.9%	CC(C)(C)NC(=O)C(c1cccs1)N(CC1CCCO1)C(=O)Cn1nnc(-c2cccs2)n1 (stereo unspecified)
16.0%	NC(=S)Nc1cc(Cl)cc(Cl)c1

# Entries from the list above that have a COOH group (two):
VDR inh	compound
-25.8%	O=C(O)/C=C/C(=O)Nc1cc(F)ccc1F
-3.6%	O=C(O)c1ccc(/C=N/NC(=O)c2ccc(F)cc2)cc1
